# Source: PubChem BioAssay
# AmpC inh no det: Promiscuous and Specific Inhibitors of AmpC Beta-Lactamase (assay without detergent); AID 585, 2007; actives 1.8% (n = 71,000); P00811; AmpC nitrocefin hydrolysis, absorbance 480 nm, no detergent; potencies from a single point are estimates; Potency, µM (series often up to 28.7 µM), for inactives: top-dose activity change, negative = inhibition; active = falling curve, for most hits resting on a single point; inconclusive = weak or doubtful change; inactive = flat or rising curve; note: % of control where 0% means no effect; about half of the hits show no inhibition at the top dose; a quarter of the inactives give rising signals
# Target sequence (P00811 whole entry, looked up): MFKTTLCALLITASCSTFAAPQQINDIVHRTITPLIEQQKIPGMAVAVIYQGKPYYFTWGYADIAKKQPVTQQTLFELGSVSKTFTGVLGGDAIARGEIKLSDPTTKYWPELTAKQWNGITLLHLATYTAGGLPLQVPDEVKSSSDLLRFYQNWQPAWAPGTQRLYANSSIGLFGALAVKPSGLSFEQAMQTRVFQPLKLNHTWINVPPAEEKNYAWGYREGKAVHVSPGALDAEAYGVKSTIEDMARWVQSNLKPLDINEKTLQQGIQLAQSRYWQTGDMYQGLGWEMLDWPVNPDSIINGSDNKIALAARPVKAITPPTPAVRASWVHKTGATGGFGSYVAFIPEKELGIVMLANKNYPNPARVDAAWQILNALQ
#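 Enzyme, pH 7.0 phosphate. Compound titrations were pre-incubated with AmpC for 15 min at room temperature before nitrocefin (stock 800 uM) addition; product formation was recorded at 480 nm every 20 s for 4 min.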
# * = called active by the depositor; ? = inconclusive; & = joins results of further samples; [ ] = remark or other dose. Potency is the fitted concentration of half-maximal effect. Some of the compounds tested; count on the stated rates, not on these rows.
Compound	AmpC inh no det
CC(C)N1C(=O)CCC1C(=O)N1CCC(Cc2ccccc2)CC1 (stereo unspecified)	68%
Cc1cc(=O)[nH]c(Nc2c(C)n(C)n(-c3ccccc3)c2=O)n1	38%
Cc1ccc(NC(=O)NC2=N/C(=C(/C#N)C(=O)N3CCCC3)c3ccccc32)cc1	12%
Cc1cccc(N2CCN(S(=O)(=O)c3ccc4c(c3)n(C)c(=O)c(=O)n4C)CC2C)c1 (stereo unspecified)	-8%
Cn1c(=O)c(-c2ccc(F)cc2)nc2cnc(N3CCOCC3)nc21	-5%
Cc1nc(N2CCOCC2)c2nc(-c3ccccc3)n(CC3CCN(C)CC3)c2n1	25%
COc1ccc2nc(NC(=O)c3ccc(Br)s3)sc2c1	?
CS(=O)(=O)Nc1ccc2c3c(cccc13)CC2	12%
Cc1cc(Cl)nc2ccc(Cc3ccc4nc(Cl)cc(C)c4c3)cc12	6%[5.75 µM]
CCOC(=O)CN=C1CC(C)(C)CC2=C1Sc1ncnc(N(C)C)c1N2	49%
CSC1CCCCC1(O)CSc1nc2c(cc1C#N)CCCC2 (stereo unspecified)	1%
CCCn1c(NCc2cccc(OC)c2OC)nc2ccccc21	20%
CN1CC=C(c2c[nH]c3ccccc23)CC1	4µM*[single pt active]
Cc1nn(CC(=O)Nc2nnc(CC(=O)N3CCCC3)s2)c(=O)c2ccccc12	-5%
CCn1c(CSc2nc3ccccc3s2)nnc1SCC(=O)c1ccc2c(c1)OCCO2	23%
CCCC(c1nnnn1CC(=O)OCC)N(Cc1cc2c(C)cc(C)cc2[nH]c1=O)C1CCCC1 (stereo unspecified)	24%
CCOCCOC(=O)C(C)Sc1n[nH]c(=O)[nH]c1=O (stereo unspecified)	7%
Cc1ccc(-c2nn(CC(=O)NCCN3CCOCC3)c(=O)c3ccccc23)cc1	73%
Cc1ccc([C@@]2(C)CC/C(=N/N=C3\CC[C@](C)(c4ccc(C)c(C)c4)c4cc(C)c(C)cc43)c3cc(C)c(C)cc32)cc1C	1%[5.75 µM]
O=C(CSc1nnc(Cc2ccccc2)n1Cc1ccco1)NC1CCCC1	43%

# 3 compounds picked at random from those above:
Compound	AmpC inh no det
CCCn1c(NCc2cccc(OC)c2OC)nc2ccccc21	20%
Cc1ccc([C@@]2(C)CC/C(=N/N=C3\CC[C@](C)(c4ccc(C)c(C)c4)c4cc(C)c(C)cc43)c3cc(C)c(C)cc32)cc1C	1%[5.75 µM]
CSC1CCCCC1(O)CSc1nc2c(cc1C#N)CCCC2 (stereo unspecified)	1%

# The results go on:
Compound	AmpC inh no det
CC(C)Sc1nc2c(c(=O)[nH]c(=O)n2C)n1CCc1ccccc1	7%
O=C(Nc1ccccc1)N(CCc1ccncc1)C1CCCCC1	5%
O=C(CN(Cc1ccccc1)C(=O)CCC(=O)Nc1nccs1)NCc1ccco1	15%
O=C(Nc1ccc(F)cc1)c1cccnc1N1CCOCC1	9%
COc1cccc(C2N(c3ccccn3)C(=O)C3CCCN32)c1OC (stereo unspecified)	-5%
Cn1c(=NC(=O)CSCC(=O)N2CCCC2)sc2ccccc21	18%
CC(=O)O[C@H]1C[C@@H](O[C@@H]2[C@H](C)O[C@H](O[C@@H]3[C@H](C)O[C@H](O[C@@H]4CC[C@@]5(C)[C@@H](CC[C@]6(C)[C@]5(C)C[C@H](O)[C@]5(C)[C@@H](C7=CC(=O)OC7)CC[C@@]56O)C4)C[C@@H]3O)C[C@@H]2O)O[C@@H](C)[C@H]1O[C@H]1O[C@@H](CO)[C@@H](O)[C@@H](O)[C@@H]1O	94%[12.8 µM]
COCCCNC(=O)C1CCN(C(=O)Nc2ccc(Cl)cc2)CC1	9%
Cc1ccc(N(CC(=O)NCc2cccs2)S(=O)(=O)c2cccs2)cc1	-6%
COc1ccc(NC2c3ccccc3C(=O)N2Cc2ccco2)cc1OC (stereo unspecified)	22%
CCOC(=O)N1CCN(C(=O)CSc2nnc(COc3ccccc3)o2)CC1	56%
C[C@H](NC(=O)Nc1cccc(C(F)(F)F)c1)C(=O)O	1%
Cc1ccccc1OC(=O)CCC(=O)OCCCC(F)(F)C(F)(F)F	33%
COc1ccc(Cl)cc1NC(=O)CN1C(=O)CSC1=O	-4%
O=C(Nc1ccccc1Cl)N1CCN(c2ccc3nnc(-c4ccccc4)n3n2)CC1	50%
CCCC(=O)NCCCc1nc2ccccc2n1C(C)C	30%
Cc1ccc(C)c(NC(=O)CSc2nnc(CCCCCNC(=O)OC(C)(C)C)o2)c1	60%
Cc1ccc(CN2C(=O)CCC2C(=O)N2CCN(c3ccc(F)cc3)CC2)cc1 (stereo unspecified)	104%
O=P(c1ccccc1)(c1ccccc1)C1CCCO1 (stereo unspecified)	8%
Cc1c(/N=C/c2ccco2)n(Cc2ccccc2)c2ccccc12	11%
Cc1ccc(-c2cc(C(=O)N3CCOCC3)c3ccccc3n2)cc1	47%
COc1ccc(C(=O)N2CCC[C@@]3(CCN(C)C3)C2)cc1	0%
O=C(NC1CCCCC1)/C(=N\O)c1ccccn1	18%
CCCCn1c(NC(C)=O)c(C#N)c2nc3ccccc3nc21	19%
CC1CCCCN1CCNS(=O)(=O)c1ccc2c(c1)oc(=O)n2C (stereo unspecified)	-25%
CCc1c(-c2ccccc2)nc2nc(C)c(C)nn12	36%
Cc1sc2c(c1C)CN(C1CC(C)(C)NC(C)(C)C1)CN2C(=O)c1ccco1	14%
CC(=O)c1ccc(OCCCC(=O)OCc2nnc(-c3ccc(Cl)cc3)o2)cc1	57%
CCCCP(=O)(CCCC)Cc1ccccc1O	10%
CSc1ncnc2c1ncn2CC(=O)[C@H]1CC[C@H]2[C@H]3CCC4=CC(=O)CC[C@@]4(C)[C@@H]3CC[C@@]12C	66%[5.75 µM]
Cc1ccc(C(=O)C2CCN(CC(=O)NC3CCCCC3)CC2)cc1	73%
OCCN(Cc1ccccc1)Cc1cccc(C(F)(F)F)c1	19%
C(=N\n1cnnc1)/c1cn(-c2cccs2)nc1-c1ccccc1	115%
CCC(Sc1ccc2nnc(-c3ccc(F)cc3)n2n1)C(=O)OC (stereo unspecified)	37%
COc1ccc(Cl)cc1NC(=O)c1oc(C)nc1C	23%
COC(=O)N1[C@H](C)C=C[C@]1(Cc1ccccc1)C(=O)NCc1ccc(C)o1	92%
Clc1ccc(-n2ncc3c(NCC4CCCO4)ncnc32)cc1 (stereo unspecified)	46%
COc1cccc2cc(-c3nnc(SCC(=O)NCc4ccccc4)n3C)oc12	28%
Cc1onc(-c2c(Cl)cccc2Cl)c1C(=O)NCCN1CCOCC1	1%
O=C(Nc1ccncc1)c1cc2ccccc2oc1=O	-9%

# Reformatted with each value named: 4 of the compounds above
CC(=O)O[C@H]1C[C@@H](O[C@@H]2[C@H](C)O[C@H](O[C@@H]3[C@H](C)O[C@H](O[C@@H]4CC[C@@]5(C)[C@@H](CC[C@]6(C)[C@]5(C)C[C@H](O)[C@]5(C)[C@@H](C7=CC(=O)OC7)CC[C@@]56O)C4)C[C@@H]3O)C[C@@H]2O)O[C@@H](C)[C@H]1O[C@H]1O[C@@H](CO)[C@@H](O)[C@@H](O)[C@@H]1O
  AmpC inh no det = 94%[12.8 µM]

COCCCNC(=O)C1CCN(C(=O)Nc2ccc(Cl)cc2)CC1
  AmpC inh no det = 9%

Cc1ccc(N(CC(=O)NCc2cccs2)S(=O)(=O)c2cccs2)cc1
  AmpC inh no det = -6%

COc1ccc(NC2c3ccccc3C(=O)N2Cc2ccco2)cc1OC (stereo unspecified)
  AmpC inh no det = 22%

# (cont.)
Compound	AmpC inh no det
COc1cccc(NC(=O)c2ccccc2-c2nc(-c3cccc(C)c3)no2)c1	-12%
CCC(C)c1ccccc1O (stereo unspecified)	5%&1%
Cc1noc(/C=C/N(C)C)c1S(=O)(=O)N1CCCC(C(=O)NCc2ccc(F)cc2)C1 (stereo unspecified)	36%
Cc1cc(NC(=O)CN2CCCCC2C)nc2c1c(=O)oc1ccccc12 (stereo unspecified)	-12%
Cc1ccc(NC(=O)C(C)N2CCOCC2)c(C(=O)c2ccccc2)c1 (stereo unspecified)	59%
CC1(C)CC(=O)c2cc(C(=O)NCc3ccco3)c(=O)n(-c3ccccc3)c2C1	53%
O=C(CSc1nc2cc(Cl)ccc2o1)N1CCOCC1	9%
CCOCCOC(=O)C1=C(C)N(C)C(=O)NC1c1cc(Cl)c(O)c(OC)c1 (stereo unspecified)	17%
CCOC(=O)c1ccc(NC(=O)CSc2nnc(-c3cccs3)n2CC)cc1	-8%
NC(=O)c1ccccc1NS(=O)(=O)Cc1ccc(Cl)cc1	-4%
CCn1c(SCC(=O)NCc2ccco2)nc2c1c(=O)n(C)c(=O)n2C	-3%
O=C(Cn1ccc2ccccc2c1=O)NCCC(=O)N1CCN(C(=O)c2ccco2)CC1	5%
CCOc1cc(C2C(C(=O)c3ccc(C)o3)=C(O)C(=O)N2CCc2ccccc2)ccc1O (stereo unspecified)	-16%
O=C(Nc1ccc(SC(F)F)cc1)c1ccc2nccnc2c1	4%
O=C(CCc1nc2ccccc2[nH]1)Nc1ccc2c(c1)OCCO2	-25%
CCOc1ccc(CCNC(=O)CN(C)S(=O)(=O)c2cccc3nsnc23)cc1OCC	73%
CCC1CCCCN1S(=O)(=O)c1ccc2c(c1)CCN2C(=O)C1CCC1 (stereo unspecified)	31%
CN(C)C(=O)N1CCN(C(=O)c2ccco2)CC1	-9%
Cc1noc(C)c1CSCC(=O)OCC(=O)Nc1sccc1C#N	-7%
O=C(CS(=O)(=O)c1ccccc1)c1ccc2c(c1)OCCO2	-10%
COCCOC(=O)c1c(C)oc2ccc(O)c(CN3CCC(C)CC3)c12	10%
Cc1ccccc1OCC(O)Cn1c(SC(C)C)nc2c1c(=O)[nH]c(=O)n2C (stereo unspecified)	69%
CCCCC1CC1C(=O)Nc1ncc2c(n1)CC(C)(C)CC2=O (stereo unspecified)	14%
CCn1cc(C(=O)NCC(=O)OC)c2cc(OC)c(OC)cc2c1=O	11%
O=C1c2cccnc2C(=O)N1c1cccc(-c2nc3ccccc3o2)c1	44%
CCOC(=O)C(C)Sc1nnc(-c2ccccc2O)n1Cc1ccccc1 (stereo unspecified)	4%
O=c1cc(CN2CCN(CCO)CC2)c2cc3c(cc2o1)CCC3	3%
O=C(CC1CCS(=O)(=O)C1)NC1CCCCC1 (stereo unspecified)	-2%
Cc1cc2cc(CNC(=O)c3ccc4c(c3)OCO4)ccc2[nH]1	-16%
Clc1ccc(OCCn2ccnc2)c(Cl)c1	12%
COc1cccc(N(CC(=O)Nc2cccc(C(C)=O)c2)S(C)(=O)=O)c1	16%
CCCCOc1ccccc1NC(=O)C=C(C)C	8%
CNC(=O)c1c(N)sc2c1CCCCC2	2%
CC[C@H](CO)NCCN[C@@H](CC)CO	-13%[12.8 µM]
CCC(=NCc1ccc(F)cc1)c1c(O)n(C)c(=O)n(C)c1=O	32%
O=C(CCC(=O)c1ccc[nH]1)c1ccc(Cl)cc1	?
CCCCOC(=O)c1ccc(NS(=O)(=O)c2cc(-c3nnnn3CC)ccc2OC)cc1	32%
O=C(Nc1ccc(S(=O)(=O)N2CCCCC2)cc1)c1cnccn1	3%
O=C(CN1C(=O)CSC1=O)N1CCc2ccccc2C1	1%
CCNc1ncc2ncc(=O)n(Cc3cccc(OC)c3)c2n1	36%
COc1cc(C(=O)N2CCN(C(=O)c3ccco3)CC2)cc(OC)c1OC	8%
O=S(=O)(c1cccc2cccnc12)N(CCO)CCO	-4%
Cc1ccc(S(=O)(=O)N2CCCC(C(=O)NC3=NCCS3)C2)cc1 (stereo unspecified)	-2%
CC1(C)C2CCC13CS(=O)(=O)N[C@@H]3C2 (stereo partly specified)	-2%
c1ccc(Cn2nnc3c(NCCN4CCOCC4)ncnc32)cc1	18%
CC(C)CCOC(=O)c1c(N)n(CC2CCCO2)c2nc3ccccc3nc12 (stereo unspecified)	72%
CC(C)(C)NC(=O)CSc1nncn1-c1ccccc1	-5%
CCCc1[nH]nc2c1C1(C(=O)N(CC(N)=O)c3ccccc31)C(C(=O)OC)=C(N)O2 (stereo unspecified)	15%
Cc1sc(N)c(C(=O)c2cccc(C(F)(F)F)c2)c1C	?
COCC(=O)c1[nH]c2ccccc2c1C	-8%
CCOC(=O)c1c(COc2ccccc2)oc2ccc(O)cc12	-7%
O=C(NCc1cccs1)c1cc(-c2ccccc2)on1	58%
COCCn1c(=O)c(-c2cccs2)nc2cnc(Nc3ccccc3)nc21	-4%
COC(=O)c1ccccc1NC1OC(=O)c2ccccc21 (stereo unspecified)	-13%
CCC/C=C(\CCC)C(NP(=O)(c1ccccc1)c1ccccc1)c1ccc(-c2ccccc2)cc1 (stereo unspecified)	23%
Fc1ccc(C2CC(c3ccco3)n3ncnc3N2)cc1 (stereo unspecified)	4µM*[single pt active]
CCN(CC)CCCN1C(=O)C(=O)/C(=C(/O)c2cnn(-c3ccccc3)c2C)C1c1ccncc1 (stereo unspecified)	7%
COC(=O)[C@H]1C[C@@H]1[C@H](NC(=O)Oc1ccc(F)cc1)c1ccccc1	26%
O=C(O)c1cncc(C(=O)O)c1	-1%[5.75 µM]
COc1ccc(CNC(=O)C2CCN(C(=O)[C@@H](CC(C)C)NC(=O)OC(C)(C)C)CC2)cc1	82%

# Continuation:
Compound	AmpC inh no det
COc1ccc(CCC(=O)N2CCC3(CC2)OCCO3)cc1	13%
CCSc1nnc(NC(=O)C2CCCCC2)s1	-1%
CC(=O)Cc1ccccc1OC(=O)c1ccco1	5%
COc1ccc(NC(=O)Cn2c(=O)sc3ccccc32)c(OC)c1	4%
CCOC(=O)c1[nH]c(C)c(CN(CCc2ccccc2)C(=O)CCC(=O)O)c1C	4%
O=C(NCc1ccc2c(c1)OCO2)c1cc2ncc(Br)cn2n1	-21%
Cc1nc(N2CCOCC2)c2nc(-c3ccccc3)n(CCN(C)C)c2n1	28%
Cc1cccc(C(=O)Nc2ccc(O)cc2)c1	-21%
